Assay outcomes from PubChem BioAssay.
RE007 growth inh – less growth of the S. pombe RE007 Vpr strain. S. pombe RE007 Vpr strain, BacTiter-Glo ATP luminescence, 24 h; control for the full effect not named in the record. Potency, µM (doses to about 92.2 µM), inactives show top-dose activity change, negative = less growth. 0.21% of 360,000 active; active = well fitted falling curve with a large enough effect; inconclusive = small, poorly fitted or top-dose-only effect; inactive = no such curve, though single readings can be large or run the other way;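 also: % is scaled to controls: 0 for no effect and ±100 for the full control effect; nearly all actives have a fitted effect of over 50% in size; the assay follows cell death caused by Vpr and the record does not say whether a fall means rescue or toxicity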
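Fission yeast RE007 carrying one integrated HIV-1 vpr copy, seeded at OD 0.01 in PMG+AL medium with 23 nL pinned compound. Grown 24 h at 30 degrees; viability read by BacTiter-Glo luminescence after 5 min.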
SARS PLP yeast – inhibitors of SARS-CoV papain-like protease in yeast | S. cerevisiae expressing SARS-CoV PLpro, growth rescue; control for the full effect not named in the record | Potency, µM (titrated, usually from 32.9 µM), for the others: at the highest dose activity, positive = growth rescue | 0.19% of 330,000 active | AID 485353; active means well fitted rising curve with a large enough effect; inconclusive means small, poorly fitted or top-dose-only effect; inactive means no such curve, though single readings can be large or run the other way; also: 0% is about no effect; nearly all actives have a fitted effect of over 55% in size; growth read by luminescence after 48 h
NS1 inh – influenza NS1 inhibition; Potency, µM (doses to about 46.1 µM), without a hit: top-dose activity, positive = more growth; 0.4% of 270,000 active; S. cerevisiae slowed by influenza A NS1, growth recovery by OD600; AID 2326; active means well fitted rising curve with a large enough effect; inconclusive means small, poorly fitted or top-dose-only effect; inactive means no such curve, though single readings can be large or run the other way; also: nearly all actives have a fitted effect of over 50% in size
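Growth recovery, yeast-based: influenza A NS1 expressed in S. cerevisiae causes slow growth, and suppressors are detected by OD600. The parent strain without NS1 is used as positive control.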
MARV entry inh – blocks Marburg virus binding to or entry into cells | Marburg virus pseudotyped entry inhibition, cell reporter; control for the full effect not named in the record; about a third of the inactives were read at about 46 µM | Potency, µM (doses to about 37.8 µM), for inactives: at the highest dose activity change, negative = inhibition, most hits filed as inhibitors | 1.8% of 300,000 active | AID 540276; active = well fitted inhibition curve with a large enough effect; inconclusive = small, poorly fitted or top-dose-only effect, or effect the other way; inactive = flat fitted curve, though single readings scatter; tested in HEK293 cells; about a fifth of its hits are not listed in these tables; also: % is scaled to controls: 0 for no effect and ±100 for the full control effect; luciferase read-out
2A StopGo – FMDV 2A StopGo reporter, luciferase signal; human cells with a luciferase reporter of 2A StopGo recoding; control for the full effect not named in the record; 1.2% of 410,000 active; Potency, µM (titrated, usually from 57.9 µM), inactives show at the highest dose signal change, negative = less light; active = well fitted falling curve with a large enough effect; inconclusive = small, poorly fitted or top-dose-only effect; inactive = no such curve, though single readings can be large or run the other way; tested in HEK293T cells; also: % is scaled to controls: 0 for no effect and ±100 for the full control effect; nearly all actives have a fitted effect of over 45% in size; luciferase light after 4 h
Cruzain noTriton – inhibitors of Trypanosoma cruzi cruzain without detergent. purified cruzain, Z-FR-AMC fluorescence, no detergent. 2.3% of 200,000 active. AID 1476. Potency, µM, without a hit: max response, negative = inhibition, usual class: inhibitors. P25779;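 also: plate controls were enzyme without inhibitor for no effect and buffer without enzyme for full effect; nearly all actives have a fitted effect of over 40% in size; top concentration of the series not given in the record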
Target sequence (P25779 123-467 limits assumed): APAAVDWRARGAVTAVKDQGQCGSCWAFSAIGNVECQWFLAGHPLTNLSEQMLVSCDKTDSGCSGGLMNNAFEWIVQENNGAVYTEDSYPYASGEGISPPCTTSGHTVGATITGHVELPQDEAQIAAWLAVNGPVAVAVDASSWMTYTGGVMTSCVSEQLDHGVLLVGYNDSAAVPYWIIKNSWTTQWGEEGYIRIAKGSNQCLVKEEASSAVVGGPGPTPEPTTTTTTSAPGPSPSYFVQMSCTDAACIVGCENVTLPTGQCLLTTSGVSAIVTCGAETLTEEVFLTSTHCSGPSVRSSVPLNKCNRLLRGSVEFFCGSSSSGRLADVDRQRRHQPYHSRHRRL
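Purified cruzain at 1.5 nM, pre-incubated 15 min with compound at room temperature in 100 mM sodium acetate pH 5.5, 5 mM DTT, 0.00005% Triton X-100. Reaction started with 2 uM Z-FR-AMC; AMC fluorescence increase over 60 s gives rate.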
Cruzain inh Det – blocks cruzain activity in presence of Triton detergent | 0.43% of 200,000 active | P25779 | purified cruzain, Z-FR-AMC fluorescence, 0.01% Triton | Potency, µM, without a hit: max response, negative = inhibition, hits mostly inhibitors | AID 1478;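 also: plate controls were neutral wells for no effect and buffer without enzyme for full effect; nearly all actives have a fitted effect of over 40% in size; top concentration of the series not given in the record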
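In this qHTS format, compounds are incubated with 1.5 nM cruzain for 15 min at room temperature before 2 uM Z-FR-AMC is added. Release of AMC is followed at 360/450 nm, and progress is taken as the 60 s fluorescence difference.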
LASV entry inh – blocks Lassa virus binding to or entry into cells; Lassa virus pseudotype entry inhibition, cell reporter; control for the full effect not named in the record; Potency, µM (highest dose often 37.9 µM), without a hit: top-dose activity change, negative = inhibition, most hits filed as inhibitors; 1.2% of 300,000 active; AID 540256; active means well fitted inhibition curve with a large enough effect; inconclusive means small, poorly fitted or top-dose-only effect, or effect the other way; inactive means flat fitted curve, though single readings scatter; tested in HEK293 cells; also: % is scaled to controls: 0 for no effect and ±100 for the full control effect; nearly all actives have a fitted effect of over 50% in size; luciferase read-out
* hit, by the source's call; ? = inconclusive; nt = no result given; [ ] = another dose, or the depositor's remark. Unless noted, calls follow the shape of the dose curve; as a rule, active = well fitted curve in the direction sought with a large enough effect; inconclusive = small, poorly fitted or top-dose-only effect, or another doubt; inactive = no such curve, though single readings can be large; an effect the other way counts as inactive or inconclusive. Potency is read from the fitted curve at half-maximal effect.

SMILES | RE007 growth inh | SARS PLP yeast | NS1 inh | MARV entry inh | 2A StopGo | Cruzain noTriton | Cruzain inh Det | LASV entry inh
C=CCn1cc(C(=O)NCc2ccc3c(c2)OCO3)c(=O)c2cc(S(=O)(=O)N(CC)CC)ccc21 | -4% | 23% | 52% | ? | -15% | ? | 6.8% | 0.71µM*
CCCCSc1nnc(CCCCCNC(=O)OC(C)(C)C)o1 | 0% | -1% | -58% | 9% | -24% | ? | 0.1% | 7%
CC(C)CNC(=O)c1c(F)c(F)c(F)c(F)c1F | -4% | 0% | 5% | -11%[46.1 µM] | 8% | nt | nt | -19%[46.1 µM]
Cn1ncc(Cl)c(Oc2ccc(Cl)cc2)c1=O | 5% | -2% | 6% | ? | -9% | -1% | -3.1% | ?
CCn1c(C(C)NC(=O)Cc2ccccc2)nc2ccccc21 (stereo not given) | -13% | 10% | -3% | 11% | -5% | -4% | -0.4% | -13%
CCS(=O)(=O)c1ccc2oc(Nc3ccccc3Br)nc2c1 | -16% | -2% | -1% | -3%[46.1 µM] | 34%[activator] | nt | nt | -4%
COCCNC(=O)C(c1cccc(OC)c1)N(C(=O)Cn1nnc2ccccc21)c1cccnc1 (stereo not given) | 6% | 8% | -10% | 11%[46.1 µM] | 6% | -2% | 3.6% | 12%
Cc1ccc(N(CC(=O)Nc2ccc(-c3nc4ccc(C)cc4s3)cc2)S(C)(=O)=O)cc1 | 14% | 4% | -3% | ? | 19% | ? | -7.7% | -10%
COc1ccccc1-c1nnc2sc(COc3ccc(F)cc3)nn12 | 18% | -9% | -113% | -19% | -22% | -8% | -6.0% | -13%
COc1cccc(C2NC(=O)NC(C)=C2C(=O)Nc2cccc(C)c2C)c1 (stereo not given) | -7% | -2% | 7% | 13% | 0% | 1% | 1.8% | 0%
Cc1nc2ccc(NC(=O)c3nn(C(C)C)c(=O)c4ccccc34)cc2s1 | 5% | 24% | 3% | 21% | 0% | ? | -2.5% | 12%
COCC1OS(=O)(=O)NC(CC(=O)SC(C)(C)C)C1C (stereo not given) | -3% | 9% | 15% | nt | -2% | nt | nt | nt
CC(C)Oc1ccc(C(=O)NCC(=O)O)cc1 | -1% | 0% | 1% | ? | -4% | nt | nt | 0%
Cc1ccc(C(=O)C2C(c3cccs3)NC(=O)NC2(O)C(F)(F)F)cc1 (stereo not given) | 1% | 0% | -7% | -26% | -5% | 7% | 3.4% | 16%
[O-][n+]1cccc2c(Br)cc(Br)c(O)c21 | ? | -21% | nt | 11%[46.1 µM] | -19% | nt | nt | 12%[46.1 µM]
Cc1cc(C(=S)N2CCOCC2)c(C)n1-c1ccc(Cl)cc1 | 4% | 27% | 10% | -39% | ? | -1% | -6.6% | ?
C=CCc1c(C)nc(SC)nc1Nc1ccccc1 | ? | -33% | -15% | -6% | ? | -9% | -5.5% | -4%
N#CC(C#N)=C1C=C2C=C(N3CCCCCC3)CCC2CC1 (stereo not given) | 5% | -7% | ? | ? | -19% | -6% | -14% | -24%
CCN(CC)CCNC(=O)CNC(=O)c1nn(-c2ccc(OC)cc2OC)c(=O)c2ccccc12 | -9% | 6% | 2% | nt | -6% | nt | nt | nt
CCOC(=O)CSc1nc2ccc(NC(=O)c3cccc(F)c3)cc2s1 | nt | nt | nt | 15%[46.1 µM] | 5% | -7% | -12% | ?
C#CCN(CC=C)C(=O)c1cccc(OC2CCN(S(C)(=O)=O)CC2)c1 | -6% | 26% | 5% | 13%[46.1 µM] | -9% | nt | nt | -16%[46.1 µM]
Cc1ccc2cc(CN(C)C(=O)c3cccc(Cl)c3)c(=O)[nH]c2c1 | nt | nt | nt | 18%[46.1 µM] | -1% | -12% | -2.7% | -20%[46.1 µM]
CCC(Sc1nnc(-c2ccc(OC)cc2)c(-c2ccc(OC)cc2)n1)C(=O)NC1CCCCC1 (stereo not given) | nt | nt | nt | nt | -21% | -23% | -12% | 1%[46.1 µM]
Cc1cc(C)n(-c2nc3ccccc3nc2N2CCN(S(=O)(=O)c3ccc(F)c(C)c3)CC2)n1 | 4% | 4% | -55% | -2% | nt | 2% | -7.3% | -16%

Fetched by compound from above (three):
SMILES | RE007 growth inh | SARS PLP yeast | NS1 inh | MARV entry inh | 2A StopGo | Cruzain noTriton | Cruzain inh Det | LASV entry inh
Cc1cc(C)n(-c2nc3ccccc3nc2N2CCN(S(=O)(=O)c3ccc(F)c(C)c3)CC2)n1 | 4% | 4% | -55% | -2% | nt | 2% | -7.3% | -16%
[O-][n+]1cccc2c(Br)cc(Br)c(O)c21 | ? | -21% | nt | 11%[46.1 µM] | -19% | nt | nt | 12%[46.1 µM]
CCC(Sc1nnc(-c2ccc(OC)cc2)c(-c2ccc(OC)cc2)n1)C(=O)NC1CCCCC1 (stereo not given) | nt | nt | nt | nt | -21% | -23% | -12% | 1%[46.1 µM]

Additional entries
SMILES | RE007 growth inh | SARS PLP yeast | NS1 inh | MARV entry inh | 2A StopGo | Cruzain noTriton | Cruzain inh Det | LASV entry inh
O=C(Cn1nnc2ccccc2c1=O)NC1CCCCC1 | 6% | 3% | 5% | 18%[46.1 µM] | 19% | nt | nt | 4%
CCCCCCCN1CCC(=O)N([C@H](CO)Cc2ccccc2)CC1 | -12% | 1% | -12% | nt | -18% | nt | nt | nt
COc1ccc(CCNC(=O)c2csc3c2CCCC3)cc1OC | -5% | -2% | -5% | ? | 15% | nt | nt | -8%[46.1 µM]
Cc1ccc(OCCC(=O)OCC(=O)N2c3ccccc3NC(=O)C2(C)C)cc1 | 17% | nt | nt | -8%[46.1 µM] | -22% | nt | nt | 8%
CCOc1ccc(NS(=O)(=O)c2cc3c4c(c2)C(C)C(=O)N4CCC3)cc1 (stereo not given) | 2% | -2% | 11% | nt | 14% | nt | nt | nt
COC(=O)c1c(NC(=O)C2CC=CCC2C(=O)O)sc2c1CCCCC2 (stereo not given) | 39% | 2% | 26% | 9% | -9% | nt | nt | 1%
COc1ccc(CNc2nc3c(c(=O)n(Cc4ccc(Br)cc4)c(=O)n3C)n2C)cc1 | -12% | 1% | -2% | ? | -17% | 8% | -0.2% | -16%
Cc1ccccc1N1C(=O)CC(N2CCC(C(N)=O)CC2)C1=O (stereo not given) | -23% | -10% | -113% | 7% | nt | 3% | 3.7% | -24%
CCN1CCN(CCOc2cccc(Cl)c2Cl)CC1 | -7% | 0% | 7% | ? | -4% | nt | nt | -13%
COc1ccccc1NC(=O)/C(=C/c1cccc([N+](=O)[O-])c1)c1ccccc1 | -5% | 24% | 0% | ? | ? | 3% | -4.2% | 5%
O=C1Nc2ccc(S(=O)(=O)N3CCCCCC3)c3cccc1c23 | 9% | -8% | -17% | nt | 1% | -12% | -6.4% | nt
O=C(NCc1ccc(Cl)cc1)c1ccc2nc[nH]c2c1 | 7% | 26% | 17% | -11% | -13% | -4% | -1.6% | -2%
CCOC(=O)CN[C@H]1CCC2C3CC=C4C[C@@H](O)CC[C@]4(C)C3CC[C@@]21C (stereo not given in full) | 28% | -11% | nt | -6% | -16% | nt | nt | -3%
Cc1nn(C)c2c1c(-c1ccccc1)cc(=O)n2Cc1c(F)cccc1Cl | nt | nt | nt | nt | -9% | -5% | -0.8% | 24%[46.1 µM]
O=C(CCc1nnc(CCCCc2ccccc2)o1)N1CCC(N2CCCC2)CC1 | -20% | -1% | 2% | nt | 7% | nt | nt | nt
O=C(OCN1C(=O)c2ccccc2C1=O)c1ccc(Cl)nc1 | 36% | -6% | -3% | -3%[46.1 µM] | ? | nt | nt | 21%
O=[N+]([O-])c1ccc(Sc2ccc(Cl)c(Cl)c2)nc1 | -6% | -3% | 15% | -20% | -19% | -6% | -2.6% | 0%
COc1ccc(-c2cc(C3CCN(Cc4ccc([N+](=O)[O-])cc4)CC3)[nH]n2)cc1 | 1% | 3% | nt | ? | ? | nt | nt | 2%
CCn1nc(C)c(CNC(=O)c2cc(COc3ccc(C)nc3)on2)c1C | 5% | -4% | -10% | ? | ? | nt | nt | ?
O=C(Cn1c(=O)n(-c2ccccc2)c(=O)c2ccc(C(=O)NCc3ccc4c(c3)OCO4)cc21)Nc1ccc(F)cc1 | nt | nt | nt | 0%[46.1 µM] | 65%[activator] | -1% | -2.4% | -3%[46.1 µM]
O=C(CCCO)c1ccc2c(c1)OCCO2 | -2% | nt | 4% | 17% | nt | 1% | -2.6% | 28%
CCN1CCN(c2nc3c(c(=O)[nH]c(=O)n3C)n2CCCSc2ncccn2)CC1 | 2% | 3% | -5% | 21% | 3% | -7% | 0.8% | -1%
Cc1nn(C)cc1C=NCCOCc1ccccc1 | -4% | -3% | -8% | ? | 2% | 2% | 2.5% | 2%
O=C(O)c1cccc(NCc2cccnc2)c1 | 8% | 6% | 5% | ? | -20% | 2% | 5.2% | 23%
CCSc1ncc(Cl)c(C(=O)Nc2sc3c(c2C(=O)NC)CCCC3)n1 | nt | nt | nt | -19%[46.1 µM] | -3% | -7% | -0.9% | -1%[46.1 µM]
CNC(=O)c1cc2c(ccc3ccccc32)o1 | -23% | -1% | -53% | nt | 71%[activator] | nt | nt | nt
CC(C)(c1ccccc1)c1ccc(OCCN2CCCC2)cc1 | -3% | -2% | -7% | ? | -12% | nt | nt | ?
Cc1cccc(C(=O)O/N=C(\N)c2ccccn2)c1 | ? | -9% | -35% | ? | -55% | nt | nt | ?
CCC(=O)c1ccc(OCC(=O)N(Cc2nnc(-c3ccccc3Cl)o2)C2CC2)cc1 | -4% | -2% | nt | ? | -6% | nt | nt | -3%
CC1CCCN(c2ccc(C(=O)OCn3nnc4ccccc4c3=O)cc2[N+](=O)[O-])C1 (stereo not given) | -4% | 27% | ? | 14% | -25% | ? | -2.6% | 13%
CCCc1nn(C)c(C(=O)Nc2ccc(C)c(C)c2)c1Cl | 7% | 14% | 5% | 3% | 32%[activator] | -12% | -4.9% | 18%

Complete entries from above. Values in the order: RE007 growth inh, SARS PLP yeast, NS1 inh, MARV entry inh, 2A StopGo, Cruzain noTriton, Cruzain inh Det, LASV entry inh
CNC(=O)c1cc2c(ccc3ccccc32)o1 as listed: -23%, -1%, -53%, nt, 71%[activator], nt, nt, nt
CCSc1ncc(Cl)c(C(=O)Nc2sc3c(c2C(=O)NC)CCCC3)n1 as listed: nt, nt, nt, -19%[46.1 µM], -3%, -7%, -0.9%, -1%[46.1 µM]
